LANA-H2A inh: blockers of LANA interaction with H2A/H2B – biochemical, FP readout, HTS, primary screen | cell-free LANA-H2A/H2B peptide, fluorescence polarization | 0.6% of 320,000 active | Protein LANA1 (Human herpesvirus 8 type P (isolate GK18)), Q9QR71 | inhibition, % (test concentration not listed); in the data active = inhibition mostly above about 10%, no sharp cut-off; inactive = mostly below about 6.7%;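 note: stock transfer was 7.5 nL into about 10 µL; 0% = median of vehicle wells and 100% = median of positive control wells; one replicate is shown; the record names a cut of 25% in any replicate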
A1 inh: caspase 3/7 activation in MEF A1-2A-BIM cells, primary screen, A1 inhibitor project, cell-based, luminescence, HTS | AID 2462, 2010 | caspase activation, % (concentration not given with the values) | Caspase-Glo 3/7 luminescence, 3 h; percent of clofoctol response, vehicle zero | 0.066% of 330,000 active;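 active = over half of replicate activation scores above 10%, or exactly half above 10 with the replicate mean above 10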;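 note: wells of about 30 µL received 50 nL stock; many hits fall short of the cut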
B2AR ag: beta2AR agonists driving receptor internalization, primary screen, cell-based, FAP fluorogen, flow cytometry; AID 504454, 2011; Am2.2-beta2AR cells; reference of the scale not given here; response, % (no concentration beside the values); Beta-2 adrenergic receptor (Homo sapiens), P07550; 0.43% of 340,000 active;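 active = response above a set limit, near 3 SD of response in nonfluorescent compounds, cut at about 42% in these data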;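 note: stock transfer was 100 nL into about 11 µL; a reference agonist was the positive control; negative values mostly stem from fluorescent compounds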
E coli growth: E. coli growth inhibition, primary screen, OD600. Escherichia coli growth, 23 h; active compounds read low. OD600 absorbance (no concentration beside the values). 0.21% of 330,000 active;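 active = OD600 absorbance below the run mean of sample wells minus 3.6 SD, in any replicate, cut at about 0.56 in these data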;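 note: stock transfer was 300 nL into about 60 µL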
Vif A3G: inhibitors of Vif binding to APOBEC3G peptide, primary screen, biochemical, TR-FRET, GST-Vif 1-94, biotin-A3G peptide, dose response retest (AID 1117319) | TR-FRET GST-Vif / biotin-A3G peptide binding; higher % means a stronger effect; test concentration not given here; strong numbers were not always called active | 0.57% of 260,000 active | inhibition, %, or IC50 in µM where a hit was titrated;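 active = above the screen mean plus three standard deviations and confirmed in dose response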;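 note: Vif residues 1-94 fused to GST binding biotinylated APOBEC3G peptide 110-148; 0% = full assay without inhibitor and 100% = GST in place of GST-Vif; retest series ran down from 100 µM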
UCH37 DUB inh: inhibitors of human UCH37 deubiquitinase, primary screen, biochemical, Ub-AMC cleavage, fluorescence. Ubiquitin carboxyl-terminal hydrolase isozyme L5 (Homo sapiens), Q9Y5K5. purified proteasome/UCH37. inhibition, % (test concentration not listed). 0.33% of 330,000 active. AID 588478, 2011;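 active = mean of two replicates above 20%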;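 note: 0% = compound-free wells with enzyme and 100% = wells lacking proteasome; stock transfer was 100 nL into about 20 µL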
Target sequence (Q9Y5K5 whole entry, looked up): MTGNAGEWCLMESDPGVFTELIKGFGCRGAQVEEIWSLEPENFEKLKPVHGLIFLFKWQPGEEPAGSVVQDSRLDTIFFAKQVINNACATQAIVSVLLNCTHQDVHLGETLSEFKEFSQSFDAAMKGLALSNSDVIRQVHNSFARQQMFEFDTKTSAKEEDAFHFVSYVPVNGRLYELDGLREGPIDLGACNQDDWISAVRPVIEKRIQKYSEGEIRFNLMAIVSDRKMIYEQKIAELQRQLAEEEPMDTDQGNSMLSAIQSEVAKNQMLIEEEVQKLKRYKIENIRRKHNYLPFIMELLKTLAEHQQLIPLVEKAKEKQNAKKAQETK
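Test system – human UCH37 enzyme supplied as purified proteasome complex · Incubation – 30 min preincubation with enzyme, 25 min cleavage at room temperature · Detection – AMC fluorescence from Ub-AMC cleavage, excitation 355 nm, emission 460 nm · Benchmarks – no-proteasome wells (full inhibition) and compound-free wells (no inhibition)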
HNF4A DNA FP: change in binding of human HNF4A to DNA, primary screen, biochemical, fluorescence polarization, FITC-DNA | AID 1224865, 2016 | 0.3% of 360,000 active | 1 h | Hepatocyte nuclear factor 4-alpha (Homo sapiens), P41235 | activity change, % at 10 µM; in the data active = activity change above about 30%, passing the limit was not always enough;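 note: controls were the assay level and a saturating level of protein; the project sought stronger binding though the title names inhibitors; some compounds called inactive have numbers as strong as hits; positive values seem to mean higher polarization but the record does not say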
Target sequence (P41235 whole entry, looked up): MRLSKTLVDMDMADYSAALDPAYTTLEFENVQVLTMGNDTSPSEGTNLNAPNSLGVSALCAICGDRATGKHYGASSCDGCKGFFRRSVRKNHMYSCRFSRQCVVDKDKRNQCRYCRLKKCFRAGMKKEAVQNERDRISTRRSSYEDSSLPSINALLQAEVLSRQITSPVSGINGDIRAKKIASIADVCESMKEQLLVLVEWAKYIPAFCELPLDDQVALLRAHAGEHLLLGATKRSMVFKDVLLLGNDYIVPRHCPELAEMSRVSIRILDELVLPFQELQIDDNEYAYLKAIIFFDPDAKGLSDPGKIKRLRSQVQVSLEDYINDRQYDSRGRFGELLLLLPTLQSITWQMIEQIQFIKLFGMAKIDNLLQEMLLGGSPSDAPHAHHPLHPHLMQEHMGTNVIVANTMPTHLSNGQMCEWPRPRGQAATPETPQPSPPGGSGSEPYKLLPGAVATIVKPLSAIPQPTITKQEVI
An asterisk follows results filed as active; i = inactive; · = not tested or not shown; & = joins results of further samples.

cpd	compound	A1 inh	UCH37 DUB inh	HNF4A DNA FP	E coli growth	LANA-H2A inh	B2AR ag	Vif A3G
1	O=C(O)CNC(=S)N(Cc1ccccc1)Cc1cccnc1	-0.2	1.8	4.1	0.66	2.8	-4	8%
2	CCn1c(SCC(=O)N(C)c2ccccc2)nc2c([nH]c3ccccc32)c1=O	-0.2	3.2	-1.7	0.73	-7.6	-12	-1%
3	CCCCCc1c2c(cc(O)c1C(=O)O)OC(=O)c1c(cc(OC)cc1C(=O)CCCC)O2	-0.1	16	3.8	0.73	-9.1	-2	2%
4	O=C(COc1ccc(Cl)cc1)N1CCN(C(=O)c2cccs2)CC1	-1.3	2.5	3.2	0.67	2.3	-9	-4%
5	Cn1c(=O)c2c(nc(NCc3ccccc3)n2CCCc2ccccc2)n(C)c1=O	-1.5	1.8	-1.4	0.71	-2.7	-11	1%&10%
6	CCOc1ccccc1NC(=O)CCc1ccc(C)o1	-0.6	5.1	-1.4	0.68	2.2	-5	12%
7	CC(C)(C)c1ccc(C(=O)n2cnc3ccccc32)cc1	0.3	-0.3	1.9	0.7	6.1	0	5%
8	COc1nc(N(C)C)nc(N(C#N)CCOC(C)=O)n1	0.4	3.8	4.2	0.71	2.5	-1	-5%
9	CCN(CC)c1ccc2cc(-c3nc(-c4cc5ccccc5oc4=O)cs3)c(=O)oc2c1	·	5.6	-104	0.69	·	-34	·
10	CCc1c(C)nc(SCC(=O)N2CCCCC2CC)[nH]c1=O (stereo not drawn)	-0.1	-0.5	-6.0	0.71	-1.4	-6	14%
11	CC(=O)Oc1ccc2ccccc2c1C(NC(=O)Cc1ccccc1)c1ccccc1Cl (stereo not drawn)	-0.1	2.1	3.4	0.77	-1.0	2	-7%
12	CN(C)CCn1c(C(=O)O)cc2ccccc21	1.1	-0.6	0.8	0.76	-2.1	-5	1%
13	C=CCNC(=O)CN(c1ccc(OC)cc1OC)S(C)(=O)=O	-0.1	-9.9	0.7	0.71	-2.8	2	-3%
14	Cc1ccc(S(=O)(=O)N2CCC(C(=O)N[C@H](C(=O)NC3CCS(=O)(=O)C3)C(C)C)CC2)cc1 (stereo partly drawn)	-0.9	0.7	0.2	0.7	-4.5	-5	11%
15	Cc1ccc(S(=O)(=O)N2CCOCC2)cc1C(=O)OCC(=O)N(Cc1ccccc1)C(C)C	-0.1	0.0	0.6	0.7	-1.8	3	·

Taken from above.
In LANA-H2A inh, #8 has 2.5
In E coli growth, #9 has 0.69

(listing goes on)
cpd	compound	A1 inh	UCH37 DUB inh	HNF4A DNA FP	E coli growth	LANA-H2A inh	B2AR ag	Vif A3G
16	COc1ccc(CNCCNC(=O)c2ccco2)c(OC)c1OC	0.4	4.9	0.6	0.67	3.2	-7	0%
17	CCN1C(=O)[C@H]2[C@@H](c3ccc(C)cc3)N3C(=O)N(c4ccc(OC)cc4)C(=O)[C@@]3(C)[C@H]2C1=O	-0.2	4.2	2.3	·	11	-1	·
18	Cc1ccc2nc(-c3ccccc3)cc(C(=O)NCC3CCCO3)c2c1 (stereo not drawn)	0.4	·	0.4	·	-0.7	-4	21%
19	C=CCOC(=O)C1=C(C)Nc2nnnn2C1c1ccc(OC)cc1OC (stereo not drawn)	0.0	3.6	1.1	0.65	-3.8	-4	3%
20	CCN(CC)S(=O)(=O)c1ccc(Cl)c(C(=O)OCC(=O)c2c(N)n(C)c(=O)n(C)c2=O)c1	0.8	3.6	3.0	0.67	8.8	12	2%
21	COc1ccc(OC)c(S(=O)(=O)N2CCc3ccccc32)c1	-1.3	6.8	4.5	0.74	-1.6	-6	10%
22	Cc1ccsc1/C=C(\C#N)C(=O)NCc1ccco1	-3.3	3.0	0.5	0.68	-11	6	-1%
23	O=C(c1ccc(Cl)c(S(=O)(=O)N2CCCCC2)c1)N1CCN(Cc2ccccc2)CC1	0.5	-3.0	1.0	0.69	-5.7	-1	-6%
24	CCc1cccc(C)c1NC(=O)Cc1ccsc1	0.8	-1.0	2.3	0.68	-3.4	19	·
25	Cc1nc2cc(-c3ccccc3)nn2c(N)c1-c1ccccc1	-9.7	·	9.3	·	0.8	13	·
26	Cc1ccc(-c2cc(N)n(Cc3ccc(Cl)cc3)n2)cc1	0.2	1.6	-0.4	0.73	-5.4	-2	-5%
27	Cc1[nH]c(C)c(S(=O)(=O)N2CCN(c3cccc(Cl)c3)CC2)c1C(=O)N1CCCC1	1.2	3.9	5.3	0.69	-0.1	6	·
28	COCc1cc(CN2CCCC(C(=O)c3cccc(C(F)(F)F)c3)C2)ccc1OC (stereo not drawn)	0.1	1.1	3.2	0.7	-0.4	-8	21%
29	O=C(NCCCc1ccccc1)[C@@H]1Cc2ccccc2CN1	0.4	4.3	5.4	0.66	-0.7	-3	4%
30	C/C(CC(=O)Nc1cccc(Br)c1)=N\NC(=O)c1ccc(O)cc1O	0.6	·	-0.6	·	-2.2	8	2%

Some of the entries so far, in transposed form:
23. O=C(c1ccc(Cl)c(S(=O)(=O)N2CCCCC2)c1)N1CCN(Cc2ccccc2)CC1
12. CN(C)CCn1c(C(=O)O)cc2ccccc21

Screen / compound no.	23	12
A1 inh	0.5	1.1
UCH37 DUB inh	-3.0	-0.6
HNF4A DNA FP	1.0	0.8
E coli growth	0.69	0.76
LANA-H2A inh	-5.7	-2.1
B2AR ag	-1	-5
Vif A3G	-6%	1%

Next part:
cpd	compound	A1 inh	UCH37 DUB inh	HNF4A DNA FP	E coli growth	LANA-H2A inh	B2AR ag	Vif A3G
31	CN1C2CCC1/C(=C\c1ccc(F)cc1)C(=O)/C2=C/c1ccc(F)cc1	0.5	1.0	-0.5	0.67	-1.3	1	·
32	Nc1ccc2nc(C3CCCCC3)[nH]c2c1	-0.1	0.7	1.1	0.65	-10	11	·
33	CCC(=O)c1ccc(/C=C/c2nc3ccccc3n2C)o1	-0.7	i	-3.8	0.69	3.2	-25	-7%
34	Cc1ccc(Sc2ccc(NC(=O)c3ccc(S(C)(=O)=O)cc3Cl)cc2)cc1	-0.7	-1.2	-0.9	0.73	9.0	0	-176%
35	NS(=O)(=O)c1cccc(NC(=O)COc2ccc([N+](=O)[O-])cc2)c1	1.0	8.1	3.0	0.72	0.7	25	5%
36	COc1cc(C)c(C(=O)Oc2cc(C)c(C(=O)O)c(O)c2C)c(O)c1C	-0.2	4.4	0.4	0.65	-2.7	3	·
37	c1ccc(CSc2ncn(-c3ccccc3)n2)cc1	-0.9	-0.2	-0.9	0.66	-1.2	-18	-4%
38	Cc1sc2ncn(CC(=O)Nc3ccccc3F)c(=O)c2c1-c1ccccc1	0.1	-1.9	-1.4	0.72	-3.2	-1	3%
39	C/C(=N\Nc1ccc(S(N)(=O)=O)cc1[N+](=O)[O-])c1cccs1	-1.7	·	-8.3	·	1.9	11	·
40	O=C(NC1CCCc2ccccc21)c1cncc(Br)c1 (stereo not drawn)	-1.1	3.1	0.5	0.72	2.0	10	5%
41	CCOc1ccc(C(=O)COC(=O)CC)cc1	0.3	2.5	0.7	0.74	-2.8	-4	-6%
42	CCN(CC)C(=O)CNC(=O)c1nn(-c2ccc(OC)c(Cl)c2)c(=O)c2ccccc12	0.5	5.1	2.0	0.66	2.8	4	-9%
43	COc1ccccc1Oc1c(C)oc2c(CN(C)C)c(O)ccc2c1=O	1.3	i	-1.6	0.69	2.7	1	·
44	CSc1ccc(/C=C/C(=O)NC(=O)c2ccccc2O)cc1	-6.1	-2.5	0.8	0.63	2.6	0	7%
45	Cc1ccc(-n2c(C)cc(/C=N/NC(=O)c3ccc(CN4CCOCC4)cc3)c2C)cc1	-0.2	·	1.6	·	-8.2	17	0%
46	Cc1c(C(=O)Nc2ccc(N3CCOCC3)cc2)cccc1[N+](=O)[O-]	0.5	4.1	1.7	0.69	-0.5	-3	·
47	O=C(Nc1ccccn1)Nc1ccccc1[N+](=O)[O-]	-8.6	5.2	-0.8	0.66	1.3	-9	-4%
48	O=C(CNS(=O)(=O)c1ccc(F)cc1)N1CCN(c2ccccc2)CC1	0.5	1.0	-0.8	0.66	-3.2	-2	6%
49	Cc1ccc(OCC(=O)NCCO)c(Br)c1	-0.6	0.2	-2.9	0.73	-4.4	3	-2%
50	COc1ccc(CCNC(=O)c2c(C)nn(CC(C)C)c2Cl)cc1	-0.2	-0.4	4.5	0.67	-1.1	5	0%
51	Cc1ccc2[nH]c3c(=O)n(CC(=O)NCc4ccco4)ncc3c2c1	-0.2	-5.0	-3.9	0.7	3.0	-7	·
52	CN(C)C(CNC(=O)CCCOc1ccccc1)c1ccco1 (stereo not drawn)	0.0	-5.9	1.5	0.7	2.4	-4	3%
53	COc1ccc(N2CCN(C(=O)CCC(=O)N3Cc4ccccc4Oc4ncccc43)CC2)cc1	-1.1	-1.2	-7.2	0.64	-6.3	2	·
54	CCCNC(=O)NCCc1c(C)[nH]c2ccccc12	0.8	2.6	-15	0.71	-1.4	4	0%
55	CCOC(=O)c1c(-c2ccc(C)cc2)csc1NC(=O)c1ccc(N2C(=O)CCC2=O)cc1	-0.6	-15	1.6	0.74	-6.9	2	5%
56	O=C(NCCCN1CCCCC1)c1ccc2c(c1)NC(=O)C(N1CCOCC1)S2 (stereo not drawn)	-0.5	-1.9	0.8	0.76	2.3	6	3%
57	CC(=O)NC(CC(=O)Nc1nc(-c2ccccc2)c(C(C)=O)s1)c1ccccc1 (stereo not drawn)	0.0	5.4	1.0	0.67	-2.6	-6	·
58	CNC(=O)c1ccc(N(Cc2ccccc2)S(C)(=O)=O)cc1	0.4	2.2	-2.9	0.69	4.1	-6	8%
59	COc1ccc(NC(=O)COC(=O)C23CC4CC(CC(NC(C)=O)(C4)C2)C3)cc1S(=O)(=O)N1CCOCC1	0.0	1.6	-2.2	0.68	-1.1	-1	-10%
60	Cc1[nH]n(-c2ccccc2)c(=O)c1C(=O)c1cccc(F)c1	-0.2	4.8	0.0	0.68	0.2	8	6%
61	Cc1nnn(-c2nonc2N)c1C(=O)N/N=C/c1ccccc1O	0.0	·	4.2	·	-7.0	-5	·
62	CC1CN(C(=O)COC(=O)c2ccc(Cl)c(S(=O)(=O)N3CCCCC3)c2)CC(C)O1 (stereo not drawn)	-0.5	1.0	4.4	0.64	-1.7	0	-6%
63	COc1ccc(-c2cc(NCc3ccccn3)n3ncnc3n2)cc1	0.7	·	1.8	·	4.3	-4	4%
64	CCSc1nc2ccccc2[nH]1	-0.3&-0.7	3.1&0.7	1.1&2.5	0.63&0.64	0.9&-0.9	-2&6	4%&6%
